# Source: PubChem
# INS promoter inh = TRM-6 insulin promoter activity inhibition | 130,000 compounds, 0.9% hits | TRM-6 cells (human fetal islet line), insulin promoter-eGFP reporter, imaging; reporter expression induced with tamoxifen | inhibition, % at 2 µM;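 active = inhibition above the mean plus 3 SD, with well images judged a real hit on visual review, cut at about 60% in these data, passing the limit was not always enough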
# RGS16-Gao HTS = RGS16-Galphao interaction regulator (human) | 220,000 compounds, 0.38% hits | binding response (% of control), % at 10 µM | AID 1441 | O15492+P09471 | bead-based flow cytometry RGS16-Galphao binding, fluorescence; actives lie on both sides;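 active = below 25% or above 175%, edge rows of some plates excepted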;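 note: Galphao activated by GDP with aluminum fluoride before binding; 100% = wells without compound and 0% = beads without RGS; some results beyond the cut were filed as inactive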
# Target sequence (O15492 whole entry, looked up): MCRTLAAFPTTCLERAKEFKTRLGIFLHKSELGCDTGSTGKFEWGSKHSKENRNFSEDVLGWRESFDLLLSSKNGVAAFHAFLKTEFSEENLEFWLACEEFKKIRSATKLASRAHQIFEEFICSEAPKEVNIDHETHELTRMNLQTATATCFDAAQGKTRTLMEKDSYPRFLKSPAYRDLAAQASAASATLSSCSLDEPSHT
# Target sequence (P09471 whole entry, looked up): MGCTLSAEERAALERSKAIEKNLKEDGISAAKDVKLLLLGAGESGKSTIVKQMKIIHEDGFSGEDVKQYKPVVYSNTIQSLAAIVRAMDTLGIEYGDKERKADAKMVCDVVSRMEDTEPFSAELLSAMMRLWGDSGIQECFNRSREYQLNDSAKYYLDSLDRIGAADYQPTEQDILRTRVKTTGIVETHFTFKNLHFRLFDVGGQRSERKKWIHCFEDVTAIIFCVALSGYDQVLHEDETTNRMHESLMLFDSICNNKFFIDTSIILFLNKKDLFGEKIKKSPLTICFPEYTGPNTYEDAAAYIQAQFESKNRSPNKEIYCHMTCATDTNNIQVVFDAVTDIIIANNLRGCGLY
# GALR2 agonist = agonists of human galanin receptor 2 (GALR2). GALR2-expressing cells, agonist activation read-out. activation, %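 (tested at 5 µM)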. 140,000 compounds, 0.48% hits;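 active = above mean plus 3 SD of all compounds, about 5% in these data, not always enough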;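 note: 0% = vehicle buffer wells and 100% = reference agonist at full effect; tested in CHO reporter cells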
# Target sequence (O43603 whole entry, looked up): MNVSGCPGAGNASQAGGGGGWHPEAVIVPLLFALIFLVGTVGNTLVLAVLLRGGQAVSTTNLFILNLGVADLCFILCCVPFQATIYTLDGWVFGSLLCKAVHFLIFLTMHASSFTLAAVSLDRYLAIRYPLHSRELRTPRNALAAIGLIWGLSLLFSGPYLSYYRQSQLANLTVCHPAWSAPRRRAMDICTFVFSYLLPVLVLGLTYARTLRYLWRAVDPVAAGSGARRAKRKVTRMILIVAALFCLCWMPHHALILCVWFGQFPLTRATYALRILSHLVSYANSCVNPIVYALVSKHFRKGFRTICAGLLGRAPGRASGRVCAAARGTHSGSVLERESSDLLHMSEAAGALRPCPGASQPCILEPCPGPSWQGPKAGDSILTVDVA
# PKD1 inh = inhibitors of human PKD1 kinase; inhibition, %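 (about 10 µM by stock and volumes)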; PKD1 kinase fluorescence polarization assay; 200,000 compounds, 0.056% hits;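 active = inhibition of 50% or more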;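 note: controls were vehicle for no effect and a reference inhibitor for full effect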
# HSV augment = increases HSV replication in cells; HSV replication augmentation in cells, fold increase; maximum fold increase; 220,000 compounds, 0.005% hits;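 active = peak rise of 1.5-fold or more in the series; tested in PC3 cells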;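 note: first round at 10 µM; read as green reporter fluorescence; hits show the peak of a series up to 25 µM; 1 = signal of infected wells without compound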
# INS promoter inh cell count = further read-out of INS promoter inh, marked with its call; normalized cell count, %; measured here: cell count, toxicity; reference of the scale not given here;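 cells exposed to compound for 48 h; stained nuclei by imaging scaled within each plate; lower means fewer cells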
# HSV augment primary fold = recorded beside HSV augment, whose call it bears; fold increase; compound at 10 µM; measured here: primary screen fold increase 10 uM; tested in PC3 cells;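 GFP signal in the first replicate; 1 = infected wells without compound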
# An asterisk follows results filed as active; i = inactive; . = not tested or not shown.
mol,INS promoter inh,INS promoter inh cell count,RGS16-Gao HTS,GALR2 agonist,PKD1 inh,HSV augment,HSV augment primary fold
c1ccc(CN2CCN(Cc3cn4cccnc4n3)CC2)cc1,0,96,103,.,-4,i,1
COc1ccc(CCNC(=O)COc2ccc([N+](=O)[O-])cc2)cc1,.,.,100,.,-1,i,0.92
CCC(C)(C)n1nnnc1CN1CCN(c2nc3ccc(C)cc3cc2C#N)CC1,-17,57,98,-1.2,-19,i,0.92
CC(=O)N1C=CN(C(C)=O)C(c2cn(C)c3ccccc23)C1c1cn(C)c2ccccc12 (stereo not given),19,101,103,-2.4,-14,i,0.82
CC(C)C[C@H](NC(=O)c1[nH]cnc1C(=O)N[C@@H](C)C(=O)OC(C)(C)C)C(=O)OC(C)(C)C,.,.,93,.,.,i,0.72
Cc1cccc(-c2noc(-c3ccccc3C(=O)NCC3CCCO3)n2)c1 (stereo not given),.,.,99,-2.0,-7,i,1.1
CCN(CC)CCCN1C(=O)C(=O)/C(=C(/O)c2cc(C)ccc2C)C1c1cccnc1 (stereo not given),33,68,84,-2.3,-3,i,1.1
Cc1csc(SCC(=O)NCc2cccc(Cl)c2)n1,.,.,103,.,-6,i,0.87
COc1ccc(C(C)NC(=O)c2ccccc2Br)cc1OC (stereo not given),-18,96,98,.,-1,i,0.91
CSc1ccc(Cl)c(C(=O)OCC(=O)N2CCOCC2)c1,-7,89,80,-1.6,-3,i,1
COc1cc(/C=N/N2CCN(C3c4ccccc4-c4ccccc43)CC2)ccc1O,-26,63,100,-0.8,-10,i,0.68
COc1ccc(C(=O)n2nc(C)cc2Nc2ccccc2)cc1,-6,86,140,7.6,3,i,0.99

mol,INS promoter inh,INS promoter inh cell count,RGS16-Gao HTS,GALR2 agonist,PKD1 inh,HSV augment,HSV augment primary fold
Cc1ccccc1NS(=O)(=O)c1cc(C(=O)NCCSC2CCCCC2)ccc1C,.,.,101,-0.5,11,i,0.71
COCCN1CCN(Cc2cn(C)nc2-c2ccc(Oc3ccccc3)cc2)CC1,.,.,101,.,.,i,0.97
COc1ccc(-c2cc(C(F)F)n3ncc(C(=O)N4CCc5ccccc54)c3n2)cc1,-107,12,102,.,-6,i,0.73
O=C(NCC1CCCO1)c1ccc(Cl)c(F)c1F (stereo not given),-26,120,96,-3.0,-1,i,0.9
Cc1cc(NC(=O)CSc2nnc(-c3ccncc3)n2-c2ccccc2)no1,.,.,102,.,-4,i,0.97
CC(=O)C1=C(O)C(=O)N(Cc2ccco2)C1c1cccc(F)c1 (stereo not given),-50,156,101,.,2,i,0.87
Cc1nc(SC2CC(=O)N(c3ccc([N+](=O)[O-])cc3)C2=O)nc2c1CCCC2 (stereo not given),-30,142,93,-1.9,-4,i,1.2
CN(C[C@@H](Cc1cccc2ccccc12)N(C[C@H](Cc1ccccc1)N(CCc1ccccc1)N=O)N=O)N=O,.,.,105,.,-7,i,1.1
S=C(NCCSCc1c(Cl)cccc1Cl)Nc1ccccc1,27,109,95,-1.3,-3,i,0.98
COC(=O)Cc1ccc(NC(=S)Nc2cccc(C)n2)cc1,.,.,111,.,-1,i,0.97
COC(=O)CC1=Nc2ccccc2NC(=O)C1,45,144,99,-1.5,-2,i,1.1
O=c1c(Cc2ccc(F)cc2)c(O)ccn1C1CCCCC1,-25,111,104,0.5,-1,i,0.87

mol,INS promoter inh,INS promoter inh cell count,RGS16-Gao HTS,GALR2 agonist,PKD1 inh,HSV augment,HSV augment primary fold
O=C(CCN1C(=O)c2ccccc2C1=O)Nc1ccccc1C(=O)N1CCOCC1,-150,130,102,-2.5,-6,i,1
CCCCNc1nc2c(c(=O)n(C)c(=O)n2C)n1Cc1cccc(OC)c1,54,145,109,-0.3,2,i,0.88
CCCOc1ccccc1C(=O)N(Cc1cccs1)C1CCS(=O)(=O)C1 (stereo not given),-86,96,86,1.9,-3,i,0.9
O=c1[nH]c2c(Br)cnc([N+](=O)[O-])c2[nH]1,.,.,107,.,.,i,0.92
CCC(NC(=O)CCl)c1ccc(C)cc1 (stereo not given),.,.,105,.,-4,i,0.94
O=C(CSc1ccc(-c2ccccn2)nn1)NCc1ccc(Cl)cc1,-108,58,150,.,2,i,0.93
COCCNC(=O)CSc1nc2sc(C)c(C)c2c(=O)n1-c1ccccc1,.,.,99,.,.,i,1.1
CCOC(=O)c1cccnc1SC(CC)C(=O)NCc1ccco1 (stereo not given),-40,127,106,-1.4,-8,i,1.1
COc1n[nH]c(C(=O)Nc2cc(F)ccc2C)c1[N+](=O)[O-],-75,55,41,-0.9,-7,.,.
O=C(c1ccncc1)N1CCN(C2CCC(c3ccccc3)CC2)CC1 (stereo not given),.,.,106,.,.,i,1
CC1Cn2c(nnc2-c2ccccc2O)S1 (stereo not given),.,.,105,-4.4,8,i,1.1
CCOc1ccccc1NC=C1C(=O)OC2(CCCCC2)OC1=O,37,79,93,-1.0,-4,i,0.88

mol,INS promoter inh,INS promoter inh cell count,RGS16-Gao HTS,GALR2 agonist,PKD1 inh,HSV augment,HSV augment primary fold
Cc1cccc(CN2CCN(Cc3cccc4nonc34)CC2CCO)n1 (stereo not given),.,.,105,.,-2,i,0.96
CC1CCCN(CCCOc2ccccc2-c2ccccc2)C1 (stereo not given),.,.,100,.,0,i,0.92
O=C(CSC1=NCCN1)NC1CCCCCC1,-6,85,102,-2.3,8,i,0.91
FC(F)(F)c1cccc(NC(=S)NC(c2ccccc2)c2ccccc2)c1,-43,125,107,1.1,-4,i,1.1
COc1ccccc1C(=O)NC(=O)CSc1cccc[n+]1[O-],-7,59,104,.,1,i,1
COc1ccccc1OCc1ccc(C(=O)N2CCN(C)CC2)o1,13,129,107,0.3,-8,i,1
COc1ccc(CN2CCCC(C(=O)c3ccc(SC)cc3)C2)cc1Cn1cccn1 (stereo not given),.,.,99,.,4,i,0.88
Cc1c(C(=O)O)sc2nc3n(c(=O)c12)CCC3,0,79,103,.,-6,i,0.87
CC(=O)Nc1ccc(CN2CCCC(CCC(=O)NCc3ccccc3F)C2)cc1 (stereo not given),.,.,96,.,0,i,1
CC(=O)Nc1c(C(=O)N2CCCCCC2)cnn1-c1ccccc1,4,100,101,-3.3,-3,i,0.94
COC(=O)[C@@H](NC(=O)NCc1cccs1)C(C)C,46,125,108,-0.6,-4,i,1
COc1ccc(F)cc1S(=O)(=O)N1CCCN(S(=O)(=O)c2cc(F)ccc2OC)CC1,.,.,98,-1.1,-5,i,0.97

# Part of the list above in order of formula weight, largest number first.
mol,INS promoter inh,INS promoter inh cell count,RGS16-Gao HTS,GALR2 agonist,PKD1 inh,HSV augment,HSV augment primary fold
CN(C[C@@H](Cc1cccc2ccccc12)N(C[C@H](Cc1ccccc1)N(CCc1ccccc1)N=O)N=O)N=O,.,.,105,.,-7,i,1.1
Cc1nc(SC2CC(=O)N(c3ccc([N+](=O)[O-])cc3)C2=O)nc2c1CCCC2 (stereo not given),-30,142,93,-1.9,-4,i,1.2
CC(=O)Nc1c(C(=O)N2CCCCCC2)cnn1-c1ccccc1,4,100,101,-3.3,-3,i,0.94
COc1ccccc1C(=O)NC(=O)CSc1cccc[n+]1[O-],-7,59,104,.,1,i,1
Cc1csc(SCC(=O)NCc2cccc(Cl)c2)n1,.,.,103,.,-6,i,0.87

# More results follow.
mol,INS promoter inh,INS promoter inh cell count,RGS16-Gao HTS,GALR2 agonist,PKD1 inh,HSV augment,HSV augment primary fold
CCS(=O)(=O)CCSc1nc2c(cc1C#N)CCCC2,-95,74,95,-1.7,5,i,0.85
Cc1ccccc1-c1nc(CS(=O)(=O)CC(=O)N2CCc3ccccc3C2)c(C)o1,.,.,116,-3.8,-17,i,0.9
O=C(c1ccc2c(=O)n(C3CCCC3)c(=S)[nH]c2c1)N1CCN(C2CCCCC2)CC1,.,.,90,-1.4,-4,.,.
Nc1c(-c2ccccc2)c(CN2CCOCC2)nn1-c1ccc(F)cc1,.,.,118,-1.0,0,i,1
CN(C)CCNC(=O)COc1cccc(Cl)c1,.,.,104,-0.9,-17,i,0.92
O=[N+]([O-])c1cccc(-c2nc(-c3ccncc3)no2)c1,.,.,110,-1.1,-7,.,.
Cc1ccc(NC(=O)Cn2nc([N+](=O)[O-])c(Br)c2C)cc1C,21,103,103,-1.9,1,i,0.78
CCOC(=O)CC(=O)CSc1nc(N)c(C#N)c(-c2ccc(F)cc2)c1C#N,.,.,103,-0.9,13,i,0.94
COc1ccccc1OCCNC(=O)C(c1ccccc1)c1ccccc1,.,.,99,.,.,i,0.93
O=C(NC1(C(F)(F)F)N=C(c2ccccc2)NC1=O)c1ccccc1 (stereo not given),33,109,111,-1.7,-6,i,0.94
Cn1ncc2c(N3CCC(Cc4ccccc4)CC3)ncnc21,.,.,100,.,-12,i,1.1
Cc1nc(CC(=O)NNS(=O)(=O)c2ccc(F)c(Cl)c2)cs1,8,104,103,-1.7,-5,i,0.99

# Whole records, quoted from the list. Values in the order: INS promoter inh, INS promoter inh cell count, RGS16-Gao HTS, GALR2 agonist, PKD1 inh, HSV augment, HSV augment primary fold
# Cc1nc(CC(=O)NNS(=O)(=O)c2ccc(F)c(Cl)c2)cs1 is listed with 8, 104, 103, -1.7, -5, i, 0.99
# Cn1ncc2c(N3CCC(Cc4ccccc4)CC3)ncnc21 is listed with ., ., 100, ., -12, i, 1.1
# O=C(c1ccc2c(=O)n(C3CCCC3)c(=S)[nH]c2c1)N1CCN(C2CCCCC2)CC1 is listed with ., ., 90, -1.4, -4, ., .
# Cc1ccc(NC(=O)Cn2nc([N+](=O)[O-])c(Br)c2C)cc1C is listed with 21, 103, 103, -1.9, 1, i, 0.78

# Next part:
mol,INS promoter inh,INS promoter inh cell count,RGS16-Gao HTS,GALR2 agonist,PKD1 inh,HSV augment,HSV augment primary fold
NC(=O)CC(NC(=O)Cc1cccc2ccccc12)c1ccc(NCc2ccccn2)c([N+](=O)[O-])c1 (stereo not given),.,.,101,.,.,i,1
Cc1ccc(NC(=O)c2sc(N)nc2-c2ccc([N+](=O)[O-])cc2)c(C)c1,.,.,104,.,.,i,0.99
CC1Oc2ccccc2N(Cc2ccccc2F)C1=O (stereo not given),35,134,98,-2.2,-4,i,1.1
COC(=O)c1cc(C(=O)Nc2nnc(C3CC3)s2)cc([N+](=O)[O-])c1,-80,100,105,0.2,6,i,0.88
COc1ccc(NC(=O)Nc2ccc(OCC(=O)N3CCOCC3)cc2)cc1OC,.,.,107,-1.0,5,i,0.93
Cc1ccc2[nH]c(=O)c(CN(CC3COCCO3)C(=O)Nc3ccccc3C)cc2c1 (stereo not given),-20,128,103,.,-5,i,0.83
COc1cc(O)oc1C=Nc1ccc(C(=O)O)cc1,.,.,106,.,7,i,0.98
Cc1ccc(NC(=S)NC(=O)/C=C/c2ccc(Cl)cc2)cc1,7,111,100,-0.5,7,i,0.97
CC(=O)c1sc(NC(=O)CCCOc2ccc(Cl)cc2)nc1C,.,.,101,.,4,i,0.97
COc1ccc(C(=O)OCC(=O)Nc2nc3c(F)c(F)c(F)cc3s2)cc1OC,.,.,102,.,-6,i,1.1
O=C(c1ccc(CNc2c(N3CCCC3)c(=O)c2=O)cc1)N1CCc2ccccc2C1,.,.,99,-2.6,-8,i,0.98
CC(C)COP(=O)(OCC(C)C)C(Nc1ccccc1)c1ccc(F)cc1 (stereo not given),-52,99,40,-0.6,-12,i,1

mol,INS promoter inh,INS promoter inh cell count,RGS16-Gao HTS,GALR2 agonist,PKD1 inh,HSV augment,HSV augment primary fold
CCCCn1c(N)c(N2CCOCC2)c(=O)n(CC(=O)NCCc2ccccc2)c1=O,.,.,103,.,-9,i,1
COc1ccc(Oc2ccccc2/C=C/C(=O)O)cc1,.,.,101,-1.7,-10,i,0.76
CCN(Cc1ccccc1)C1CCN(Cc2ccc(SC)cc2)CC1,.,.,98,.,4,i,1.1
C=CCNC(=S)Nc1cc(C)ccn1,.,.,100,.,8,i,0.86
Cc1nn2c(=O)cc(COC(=O)c3ccc(S(=O)(=O)N4CCCCC4)cc3)nc2s1,0,138,101,-1.9,3,.,.
COn1c(SCC(N)=O)nc2ccccc2c1=O,.,.,100,-1.7,-9,i,0.84
CC(=O)NC(NC(=S)Nc1ccc(S(N)(=O)=O)cc1)C(Cl)(Cl)Cl (stereo not given),.,.,98,.,.,i,1.1
O=S(=O)(CCc1ccccc1)N1CCOCC1,33,113,-85,-1.7,-21,i,0.91
CCCN(c1ccc(C)cc1)c1nc(=O)c2cccnc2s1,.,.,100,.,.,i,1.1
Cc1ccc(N2CCN(CC(=O)Nc3c(C(=O)C4CC4)oc4ccccc34)CC2)cc1,.,.,101,-2.3,-12,i,0.96
COc1ccc(CNC(=O)COC(=O)c2cc(-c3cccs3)nc3ccccc23)cc1OC,33,101,140,0.0,-6,i,0.75
COC(=O)c1csc(S(=O)(=O)N2CCCCC2)c1OC,.,.,102,.,.,i,1.3
